Compound activity from PubChem BioAssay.
FGF22 binding = FGF22 (human) thermal shift binding | Q9HCT0 | calls only at 9.99 µM | recombinant FGF22 thermal shift, SYPRO orange fluorescence; percent of sucrose octasulfate shift, DMSO zero | 1.5% of 340,000 active;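 active = melting point raised past a set limit in the mean and every replicate; three in four hits are not shown here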
Ecoli rRNA inh = inhibitors of bacterial rRNA selective over humanized ribosomes; E. coli WT GFP vs humanized-ribosome RFP mutants, fluorescence, 24 h; stronger effect = lower value; DMSO median 0, no signal -100; GFP signal change (wild-type ribosome), % (concentration not given with the values); 1.6% of 350,000 active; AID 720706;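 active = significant combined selectivity score with lowered wild-type GFP, culture density cut under 30%, mutant RFP and density less affected; inactive = any of these conditions unmet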; also: one replicate is shown; some compounds called inactive have numbers as strong as hits
Beta2AR agonist = human beta-2 adrenergic receptor agonism by FAP; response, % (concentration not given with the values); 0.43% of 340,000 active; Am2.2-beta2AR cells, FAP receptor internalization, flow cytometry; reference of the scale not given here; P07550;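 active = response above a set limit, near 3 SD of response in nonfluorescent compounds, cut at about 42% in these data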;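 also: stock transfer was 100 nL into about 11 µL; a reference agonist was the positive control; negative values mostly stem from fluorescent compounds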
Target sequence (P07550 whole entry, looked up): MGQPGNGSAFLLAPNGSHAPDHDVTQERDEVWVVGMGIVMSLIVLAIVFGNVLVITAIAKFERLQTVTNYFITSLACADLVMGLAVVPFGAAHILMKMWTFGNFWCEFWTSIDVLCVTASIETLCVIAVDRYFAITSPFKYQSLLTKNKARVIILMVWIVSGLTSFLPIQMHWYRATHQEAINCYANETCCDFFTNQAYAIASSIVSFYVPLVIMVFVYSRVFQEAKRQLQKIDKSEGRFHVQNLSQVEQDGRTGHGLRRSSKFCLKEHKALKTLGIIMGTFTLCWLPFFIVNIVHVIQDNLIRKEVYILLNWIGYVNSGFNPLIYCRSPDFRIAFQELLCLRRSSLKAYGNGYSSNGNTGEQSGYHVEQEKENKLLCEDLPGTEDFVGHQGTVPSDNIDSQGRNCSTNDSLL
ALR H2O2 inh = inhibitors of human sulfhydryl oxidase ALR. purified ALR, DTT oxidation, H2O2 HRP-luminol luminescence. inhibition, % (concentration not given with the values). 3.8% of 290,000 active. AID 485317;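 active = mean and each replicate at 75% or more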;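 also: stock transfer was 7.5 nL into about 7.5 µL; 0% = neutral wells and 100% = wells with inactivated enzyme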
Target sequence (P55789 whole entry, looked up): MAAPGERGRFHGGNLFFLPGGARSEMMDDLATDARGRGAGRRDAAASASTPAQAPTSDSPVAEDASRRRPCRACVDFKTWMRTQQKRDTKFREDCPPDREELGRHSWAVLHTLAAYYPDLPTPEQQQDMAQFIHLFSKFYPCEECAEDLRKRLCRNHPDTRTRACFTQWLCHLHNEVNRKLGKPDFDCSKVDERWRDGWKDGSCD
HNF4A DNA FP = change in binding of human HNF4 alpha to DNA; AID 1224865; HNF4a-FITC DNA binding, fluorescence polarization, 1 h; 0.3% of 360,000 active; activity change, % at 10 µM; in the data active = activity change above about 30%, passing the limit was not always enough;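 also: controls were the assay level and a saturating level of protein; the project sought stronger binding though the title names inhibitors; some compounds called inactive have numbers as strong as hits; positive values seem to mean higher polarization but the record does not say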
Target sequence (P41235 whole entry, looked up): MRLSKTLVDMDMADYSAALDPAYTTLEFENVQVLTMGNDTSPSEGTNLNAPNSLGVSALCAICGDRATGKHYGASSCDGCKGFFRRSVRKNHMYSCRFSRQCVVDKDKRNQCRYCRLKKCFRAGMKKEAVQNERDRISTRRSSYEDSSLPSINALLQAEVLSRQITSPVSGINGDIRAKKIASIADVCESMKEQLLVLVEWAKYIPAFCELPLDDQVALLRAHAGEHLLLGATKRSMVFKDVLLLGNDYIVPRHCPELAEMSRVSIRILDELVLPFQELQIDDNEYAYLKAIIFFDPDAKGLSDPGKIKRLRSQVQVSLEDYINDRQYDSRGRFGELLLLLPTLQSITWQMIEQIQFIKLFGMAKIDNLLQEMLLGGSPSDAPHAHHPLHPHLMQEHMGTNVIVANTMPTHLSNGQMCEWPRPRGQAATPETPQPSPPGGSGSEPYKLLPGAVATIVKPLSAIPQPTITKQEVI
E coli growth = inhibitors of Escherichia coli growth | OD600 absorbance (concentration not given with the values) | OD600, 23 h; stronger effect = lower value | AID 1053175 | 0.21% of 330,000 active;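 active = OD600 absorbance below the run mean of sample wells minus 3.6 SD, in any replicate, cut at about 0.56 in these data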;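 also: stock transfer was 300 nL into about 60 µL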
UCH37 DUB inh = inhibitors of human deubiquitinating enzyme UCH37; Q9Y5K5; purified proteasome/UCH37, Ub-AMC cleavage fluorescence; inhibition, % (test concentration not listed); 0.33% of 330,000 active; AID 588478;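 active = mean of two replicates above 20%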;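 also: 0% = compound-free wells with enzyme and 100% = wells lacking proteasome; stock transfer was 100 nL into about 20 µL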
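system = Proteasome-associated human UCH37 deubiquitinase | amount = 0.15 nM proteasome as dispensed | medium = pH 7.4 Tris-HCl (50 mM) with ovalbumin, ATP-MgCl2, DTT | incubation = 30 min preincubation with enzyme, 25 min cleavage at room temperature | detection = AMC fluorescence 355/460 nm | read-out basis = percent inhibition | controls = no-proteasome and no-compound wells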
Ecoli rRNA inh OD600 = recorded beside Ecoli rRNA inh, whose call it bears; OD600 change, %; measured here: OD600 growth;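 optical density of the mix in the first replicate; 0 = DMSO median and -100 = no signal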
Ecoli rRNA inh RFP = further read-out of Ecoli rRNA inh, marked with its call; RFP signal change, %; measured here: RFP humanized mutant strains;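 first replicate; 0 = DMSO median and -100 = no signal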
Numbers without * were called inactive; i = inactive; . = no result given. Some of the compounds tested (hit frequency here may not be typical).

SMILES	FGF22 binding	Ecoli rRNA inh	Ecoli rRNA inh OD600	Ecoli rRNA inh RFP	Beta2AR agonist	ALR H2O2 inh	HNF4A DNA FP	E coli growth	UCH37 DUB inh
CCCC(NC(=O)CCc1c(C)c2cc3c(-c4ccccc4)coc3cc2oc1=O)C(=O)O (stereo unspecified)	i	-34*	-24*	-8.1*	4	2	-4.7	0.69	-11
C(=C\c1ccccc1)/CN1CCN(C(c2cc3ccccc3o2)c2nnnn2-c2ccc3c(c2)OCCO3)CC1 (stereo unspecified)	i	-5	6	4.5	.	.	1.4	.	.
COc1ccc(CNC2C[C@H]3CCCC(=O)N4CC[C@@H](C2)[C@@H]34)cc1 (stereo partly specified)	i	24	14	-0.9	-10	.	0.5	0.68	0.1
CC(C)c1ccc(NC(=O)[C@@H](NC(=O)N2CC(=O)Nc3ccccc32)C(C)C)cc1	i	3	-6	-1.2	-13	2	1.6	0.68	4.7
CCc1ccc(-c2nc(CS(=O)CC(=O)O)c(C)o2)cc1 (stereo unspecified)	i	5	0	-2.5	-5	99*	0.6	0.68	1.5
CC(Oc1cccc(Cl)c1)C(=O)Nc1ccc([N+](=O)[O-])cn1 (stereo unspecified)	.	.	.	.	0	-2	-4.7	0.68	7.7
COc1ccc(Cl)cc1CN1CCOCC1	i	5	2	-2.4	5	3	3.1	0.66	6.4
COc1ccc(/C(N)=N/OC(=O)c2ccc(Br)o2)cc1	i	21	13	1.1	-3	.	-3.4	0.68	0.5
C=CCNC(=O)c1onc(CSc2ccccc2)c1C(=O)O	i	0	-9	2.3	1	9	2.0	0.67	1.5
COc1ccc2nc(NC(=O)c3ccc(-c4cccc([N+](=O)[O-])c4)o3)sc2c1	.	.	.	.	.	-7	.	0.7	6.2
CC(=O)NC[C@H]1O[C@@H](n2ccc(N)nc2=O)[C@H](O)[C@@H]1O	i	9	11	1.0	.	.	7.1	.	.
O=C(NCc1ccccc1)Nc1cccc2ccccc12	i	-5	-9	5.4	-3	-8	-4.7	0.69	-0.5
CC(C)Oc1ccc(C(=O)NC2=NCCS2)cc1	i	12	4	-2.8	-2	-4	-0.6	0.64	-0.6
Cc1cccc(COC[C@H](Cc2ccccc2)N2CCN(C(=O)c3ccc(Cl)c(Cl)c3)CCC2=O)c1	i	18	10	4.2	.	.	1.0	.	.
CN(C)c1ncnc2c1ncn2[C@H]1CN(Cc2ccc(-c3ccccc3)cc2)C[C@@H](CO)O1	i	-46	-73	-7.4	.	.	3.6	.	.
Cc1cc(C(=O)OCC(=O)NC(=O)c2cccn2C)c2ccccc2n1	i	13	7	-2.1	-5	-3	-1.6	.	.
C=CCc1cccc2cc(C(=O)N(CC)CC)c(=O)oc12	.	.	.	.	-8	.	1.4	0.65	-0.6
Cc1ccc(C)c(NC(=O)CN2C(=O)CNC2=O)c1	.	.	.	.	3	1	2.4	0.77	0.8
Cc1ccc(S(=O)(=O)NC2CCCCC2)c(C)c1NS(C)(=O)=O	i	-4	-4	-2.5	0	-1	0.7	0.67	1.9
COc1ccc(/C=C2\C(=O)ON=C2c2ccccc2)cc1OC	i	3	11	-1.8	15	.	-0.8	0.69	5.2
COC(=O)C1CCN(C(=O)C2CCN(C(=O)[C@H](C)NS(=O)(=O)c3ccc(C)cc3)CC2)CC1	i	.	.	.	1	.	-2.5	0.73	-3.7
CC(C)CN(C(=O)COC(=O)c1ccccc1SCC(=O)NC1CCCCCC1)C1CCS(=O)(=O)C1 (stereo unspecified)	i	12	18	-6.3	-12	.	-0.4	0.67	-1.2
Cc1ccc(NC(=O)CCl)c(C)c1	i	19	15	-0.4	6	.	1.8	0.65	0.7
CN(CC(=O)Nc1ccc(F)cc1)C(=O)COC(=O)Cc1cccs1	i	7	8	-2.0	1	1	-2.2	0.69	-2.9
COc1cc(C(=O)/C=C/c2cccnc2)c([N+](=O)[O-])cc1OC	i	13	-2	-1.4	7	.	-4.4	.	1.2
CC(C)CN(CCCNC(=O)CN1C(=O)COc2ccc(S(=O)(=O)N3CCOCC3)cc21)CC(C)C	i	0	4	-1.1	-1	-4	1.9	0.66	0.4
O=C(COC(=O)Cc1cccs1)Nc1ccccc1Cl	i	3	9	1.4	3	4	-0.2	0.68	-0.5
CC1CCN(S(=O)(=O)c2ccc(N/N=C(/C#N)C(N)=O)cc2)CC1	.	.	.	.	-4	39	-0.4	.	.
CC(=O)N1CCN(C(=O)COC(=O)CNC(=O)c2ccccc2C)CC1	i	8	8	-5.4	6	-10	0.3	0.69	5.7
Cc1ccc(C)c(S(=O)(=O)N2CCN(CC(=O)Nc3ccc4c(c3)CCC4)CC2)c1	i	-13	-32	-9.5	-1	-2	2.5	0.69	1.2
O=C1C2CSCN2C(=O)CN1CCCN1CCN(C(c2ccccc2)c2ccccc2)CC1 (stereo unspecified)	i	.	.	.	0	-21	0.5	0.69	-0.7
Oc1ccc2[nH]ccc2c1	.	.	.	.	-4	34	23	0.7	0.9
O=C(Cc1ccccc1)Nc1cccnc1	i	16	11	-1.1	6	1	2.3	0.69	4.9
O=c1c(=O)n2c(nn1Cc1ccc(F)cc1)sc1ccccc12	i	5	9	-0.2	5	-8	1.4	0.68	-156
CCOc1cc(/C=C2\C(=O)N(Cc3ccc(C)cc3)C(C)=C2C(=O)OC)ccc1O	.	.	.	.	3	-15	5.2	0.76	2.2
O=C(O)/C=C/c1ccccc1[N+](=O)[O-]	i	-4	-4	-5.0	-7	.	0.8	0.73	0.6
CN(C)C(=O)c1ccc(NC(=O)COc2cccc3c2OC(C)(C)C3)cc1	i	0	5	-2.1	-4	.	-0.2	0.69	2.3
Cc1cc(-c2ccc(S(=O)(=O)N(C)Cc3ccccc3)cc2)on1	i	1	2	-0.8	-3	-11	-2.3	0.7	1.4
CC(=O)NS(=O)(=O)c1ccc(NC(=S)NC(=O)CC(C)C)cc1	i	4	2	0.9	-5	3	0.2	0.69	-6.3
Cc1ccc(NC(=O)CSc2nnc(-c3ccccn3)n2N)cc1F	i	7	8	-0.8	-11	.	-3.6	0.66	2.2
COc1cc(/C=N/n2nnnc2N)ccc1OC(C)C	i	-6	30	8.3	-17	-12	3.1	.	.
CC(C)N1CCC(N2CCN(CCCc3ccccc3)CC2CCO)CC1 (stereo unspecified)	i	12	19	4.2	1	-3	1.1	0.67	0.5
COCCN1C(=O)C(=O)/C(=C(/O)c2ccc(S(=O)(=O)N3CCOCC3)cc2)C1c1cccc(Cl)c1 (stereo unspecified)	i	7	6	0.9	-1	.	-2.1	0.71	13
CC1CCCCN1Cc1c(O)ccc2c(=O)c(-c3nc4ccccc4s3)coc12 (stereo unspecified)	i	6	2	-4.1	4	-2	4.0	0.71	6.2
Cc1ccc(NC(=O)CCC(=O)NNC(=O)c2ccco2)c(C)c1	.	.	.	.	1	5	-0.5	0.71	0.5
CN(C)S(=O)(=O)c1cc([N+](=O)[O-])ccc1N1CCCCCC1	.	.	.	.	40	3	2.0	0.71	6.0
COc1ccc(NC(=O)CN2C(=O)COc3ccc(S(=O)(=O)N4CCOCC4)cc32)c(OC)c1	i	4	16	-1.3	-1	.	2.6	0.7	0.7
O=C(NC(=S)Nc1ncccn1)c1ccccc1Cl	i	-1	-12	10	-5	11	-9.9	0.68	2.6

Five compounds from above, sorted by their value in Ecoli rRNA inh OD600, smallest number first:
SMILES	FGF22 binding	Ecoli rRNA inh	Ecoli rRNA inh OD600	Ecoli rRNA inh RFP	Beta2AR agonist	ALR H2O2 inh	HNF4A DNA FP	E coli growth	UCH37 DUB inh
O=C(NC(=S)Nc1ncccn1)c1ccccc1Cl	i	-1	-12	10	-5	11	-9.9	0.68	2.6
Cc1cc(-c2ccc(S(=O)(=O)N(C)Cc3ccccc3)cc2)on1	i	1	2	-0.8	-3	-11	-2.3	0.7	1.4
COCCN1C(=O)C(=O)/C(=C(/O)c2ccc(S(=O)(=O)N3CCOCC3)cc2)C1c1cccc(Cl)c1 (stereo unspecified)	i	7	6	0.9	-1	.	-2.1	0.71	13
Cc1ccc(NC(=O)CSc2nnc(-c3ccccn3)n2N)cc1F	i	7	8	-0.8	-11	.	-3.6	0.66	2.2
COc1ccc(NC(=O)CN2C(=O)COc3ccc(S(=O)(=O)N4CCOCC4)cc32)c(OC)c1	i	4	16	-1.3	-1	.	2.6	0.7	0.7

Additional records follow.
SMILES	FGF22 binding	Ecoli rRNA inh	Ecoli rRNA inh OD600	Ecoli rRNA inh RFP	Beta2AR agonist	ALR H2O2 inh	HNF4A DNA FP	E coli growth	UCH37 DUB inh
Cc1ccc(O)c(NC(=O)c2cccc(NC(=O)c3ccco3)c2)c1	.	.	.	.	85*	24	0.6	0.75	3.9
O=C(NC1CCCCCC1)c1[nH]c(C(F)(F)F)nc1-c1ccccc1	i	-44	-77	-15	.	.	-1.4	.	.
COc1ccccc1N(CC(=O)NC1CCCC1)C(=O)C1(C)CC(=O)N=C2C=CC(C)=CN21 (stereo unspecified)	i	5	4	1.0	-1	-7	4.0	0.7	i
N#C/C(=C(\O)c1cc(Cl)sc1Cl)c1nc2ccccc2[nH]1	i	3	2	0.2	-1	-3	6.5	.	.
COc1ccc(N2C(=O)CSC2c2ccccc2F)c(OC)c1 (stereo unspecified)	.	4	8	6.1	7	-6	4.0	0.7	0.8
O=[N+]([O-])c1ccc(/C=N/Nc2nc(N3CCOCC3)nc(N3CCOCC3)n2)cc1	.	.	.	.	-2	0	6.7	.	.
CC(=O)c1ccc(NC(=O)C2CC(c3ccc(F)cc3)=NO2)cc1 (stereo unspecified)	.	.	.	.	-6	-5	-7.2	0.67	0.7
Cc1nn(-c2cc(N3CCCCCC3)ccc2[N+](=O)[O-])c(=O)c2ccccc12	.	.	.	.	-6	-7	2.7	0.71	6.8
CC1CCN(C(=O)c2cccc(S(=O)(=O)N3CCCCC3)c2)CC1	.	.	.	.	2	-15	1.8	0.69	2.8
O=C(O)c1ccc(-c2noc(-c3cccc(Cl)c3)n2)cc1	i	-23*	-8.4*	5.5*	-3	5	9.4	0.77	4.2
COC(=O)c1ccc(N(C(=O)CNC(=O)c2ccco2)C(C(=O)NC2CCCC2)c2ccco2)cc1 (stereo unspecified)	.	.	.	.	3	-8	2.4	0.69	-0.1
O=C(Nc1ccc(S(=O)(=O)N2CCOCC2)cc1)c1ccccc1	.	.	.	.	-1	-4	5.1	0.69	3.3
COC(=O)[C@@]12C[C@@H](CC(=O)N3CCSCC3)C(=O)N(Cc3ccco3)C1=CCC(C)(C)C2	i	3	6	-1.3	.	.	-4.1	.	.
CC(C)CC(=O)Nc1ccc(N2CCN(C(=O)c3cccs3)CC2)cc1	i	2	10	-2.5	-1	4	2.1	0.7	4.5
Fc1ccc(OCCn2cnc(Cl)c2Cl)cc1	i	-5	-4	0.1	-3	50	2.8	0.65	2.6
CC(C)[C@@H]1CC2=C(C(=O)OC(C)(C)O2)[C@H](CCc2ccccc2)O1	i	2	-16	-6.2	.	.	2.2	.	.
COc1cccc(CN(C)CC(=O)NC(=O)NCc2ccccc2)c1	.	.	.	.	8	-6	1.0	0.68	-0.1
CCOC(=O)C1(Cc2cccc(OC)c2)CCCN(C(=O)CNC(C)=O)C1 (stereo unspecified)	i	-1	-13	-2.7	-1	-3	-1.6	0.72	2.4
CCOC(=O)C1(CCOc2ccccc2)CCN(CC2CC2)CC1	i	13	6	0.8	-9	.	2.2	0.67	-2.1
O=C(NC1CCc2ccccc21)c1cc(COc2ccc(F)cc2F)on1 (stereo unspecified)	i	6	-1	-2.0	-2	-2	-1.5	0.7	1.8
O=C1C=C(c2ccccc2)C(c2ccccc2)C1 (stereo unspecified)	i	-6	-12	-2.0	-6	.	2.3	0.67	2.5
Cc1cc(C(=O)COC(=O)CN(C)S(=O)(=O)c2ccc(Cl)cc2)c(C)n1CC1CCCO1 (stereo unspecified)	.	.	.	.	7	0	2.5	0.71	2.2
